T cruzi repl = inhibitors of intracellular T. cruzi growth, primary screen, luminescence, NIH3T3 host cells; inhibition, % (concentration not given with the values); T. cruzi beta-gal in NIH3T3, 90 h; hit rate 1.4% among 300,000;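 active = mean inhibition across valid replicates above about 55%, limit read from the data; inconclusive = mean below that limit but half or more replicates reach it; inactive = mean below it, under half of replicates reach it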;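 also: signal also drops with host cell toxicity which is not excluded here; 0% = plate median of DMSO wells and 100% = zero luminescence signal; higher percent means less beta-gal luminescence so fewer parasites; stock transfer was 50 nL into about 50 µL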
Beta cell apopt = inhibitors of cytokine-induced beta cell apoptosis, primary screen, luminescence; INS-1E cytokine-induced death, ATP luminescence, 48 h; percent of positive-control rescue, neutral wells zero; protection from apoptosis, % (no concentration beside the values); hit rate 0.8% among 300,000;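 active = all replicates at 75% or more, or half of them and the mean; inconclusive = half reach 75% but not the mean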;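 also: 0% = cytokine-treated negative control wells and 100% = positive control rescue; higher means more ATP so stronger rescue from cytokine killing; wells of about 40 µL received 100 nL stock; the first replicate is given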
A1 inh = caspase 3/7 activation in MEF A1-2A-BIM cells, primary screen, A1 inhibitor project, cell-based, luminescence, HTS; Caspase-Glo 3/7 luminescence, 3 h; percent of clofoctol response, vehicle zero; caspase activation, % (concentration not given with the values); hit rate 0.066% among 330,000; AID 2462, 2010;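 active = over half of replicate activation scores above 10%, or exactly half above 10 with the replicate mean above 10; inconclusive = replicate mean below 10 yet half the replicates above 10; inactive = over half of replicates below 10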;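 also: wells of about 30 µL received 50 nL stock; many hits fall short of the cut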
rRNA inh HTS = reduced GFP signal of wild-type E. coli, primary screen, bacterial rRNA inhibitor project, GFP/RFP fluorescence, OD600, single point. E. coli WT GFP vs humanized-ribosome RFP mutants, 24 h; hits give low values; DMSO median 0, no signal -100. GFP signal change (wild-type ribosome), % (concentration not given with the values). hit rate 1.6% among 350,000;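 active = significant combined selectivity score with lowered wild-type GFP, culture density cut under 30%, mutant RFP and density less affected; inactive = any of these conditions unmet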; also: one replicate is shown; some compounds called inactive have numbers as strong as hits
LANA-H2A inh = blockers of LANA interaction with H2A/H2B – biochemical, FP readout, HTS, primary screen. Protein LANA1 (Human herpesvirus 8 type P (isolate GK18)), Q9QR71. cell-free LANA-H2A/H2B peptide, fluorescence polarization. inhibition, % (test concentration not listed). hit rate 0.6% among 320,000; in the data active = inhibition mostly above about 10%, no sharp cut-off; inactive = mostly below about 6.7%;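 also: stock transfer was 7.5 nL into about 10 µL; 0% = median of vehicle wells and 100% = median of positive control wells; one replicate is shown; the record names a cut of 25% in any replicate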
Target sequence (Q9QR71 whole entry, looked up): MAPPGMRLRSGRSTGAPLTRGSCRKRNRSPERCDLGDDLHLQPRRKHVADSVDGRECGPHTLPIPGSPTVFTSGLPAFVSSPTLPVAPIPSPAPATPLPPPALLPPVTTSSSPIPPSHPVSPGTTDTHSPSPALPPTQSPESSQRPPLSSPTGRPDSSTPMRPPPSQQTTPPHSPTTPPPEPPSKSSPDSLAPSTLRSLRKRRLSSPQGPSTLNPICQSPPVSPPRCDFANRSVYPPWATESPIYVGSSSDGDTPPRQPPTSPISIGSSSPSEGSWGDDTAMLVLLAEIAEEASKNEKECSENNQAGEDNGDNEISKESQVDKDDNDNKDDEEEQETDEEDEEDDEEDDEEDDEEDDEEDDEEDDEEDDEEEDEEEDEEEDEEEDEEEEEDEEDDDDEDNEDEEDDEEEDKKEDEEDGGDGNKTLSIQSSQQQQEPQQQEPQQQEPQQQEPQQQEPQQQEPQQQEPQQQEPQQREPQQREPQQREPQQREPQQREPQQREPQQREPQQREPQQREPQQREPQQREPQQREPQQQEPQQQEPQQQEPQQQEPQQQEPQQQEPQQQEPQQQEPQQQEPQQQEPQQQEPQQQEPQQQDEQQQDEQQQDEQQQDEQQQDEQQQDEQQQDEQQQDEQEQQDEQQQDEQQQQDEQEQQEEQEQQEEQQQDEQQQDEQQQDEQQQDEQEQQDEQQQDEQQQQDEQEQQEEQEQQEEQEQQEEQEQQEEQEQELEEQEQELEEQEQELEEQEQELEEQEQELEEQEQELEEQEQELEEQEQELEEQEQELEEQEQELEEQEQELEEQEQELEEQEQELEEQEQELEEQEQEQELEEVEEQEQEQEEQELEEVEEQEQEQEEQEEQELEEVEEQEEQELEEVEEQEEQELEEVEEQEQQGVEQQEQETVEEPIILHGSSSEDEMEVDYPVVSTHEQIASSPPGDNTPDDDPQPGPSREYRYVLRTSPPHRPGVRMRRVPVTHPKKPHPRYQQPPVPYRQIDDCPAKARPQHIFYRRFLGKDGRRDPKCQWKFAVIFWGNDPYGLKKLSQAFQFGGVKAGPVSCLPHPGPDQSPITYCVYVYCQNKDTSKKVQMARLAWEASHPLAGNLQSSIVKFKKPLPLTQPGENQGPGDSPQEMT
ALR inh = inhibitors of human ALR sulfhydryl oxidase, primary screen, biochemical, H2O2 detection, HRP-luminol luminescence, single point; AID 485317, 2010; inhibition, % (test concentration not listed); FAD-linked sulfhydryl oxidase ALR (Homo sapiens), P55789; purified ALR, DTT oxidation; hit rate 3.8% among 290,000;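 active = mean and each replicate at 75% or more; inconclusive = only one of the two met; inactive = neither met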;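 also: stock transfer was 7.5 nL into about 7.5 µL; 0% = neutral wells and 100% = wells with inactivated enzyme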
Calb FLC = C. albicans growth inhibition with fluconazole, primary screen, CaCi-2 strain, Alamar Blue fluorescence | hit rate 0.57% among 300,000 | C. albicans CaCi-2 (fluconazole-resistant clinical isolate) + fluconazole, 48 h | growth inhibition, % (no concentration beside the values) | AID 1979, 2009;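 active = most replicates above 75%; inconclusive = exactly half above 75%; inactive = most below 75%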;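 also: all wells also contain fluconazole at 8 µg/ml as a sub-toxic cotreatment; 0% = median of DMSO wells and 100% = median of geldanamycin control wells; wells of about 8 µL received 7.5 nL stock; the first replicate is given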
B2AR ag = beta2AR agonists driving receptor internalization, primary screen, cell-based, FAP fluorogen, flow cytometry; Beta-2 adrenergic receptor (Homo sapiens), P07550; Am2.2-beta2AR cells; reference of the scale not given here; response, % (concentration not given with the values); hit rate 0.43% among 340,000; AID 504454, 2011;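 active = response above a set limit, near 3 SD of response in nonfluorescent compounds, cut at about 42% in these data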;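 also: stock transfer was 100 nL into about 11 µL; a reference agonist was the positive control; negative values mostly stem from fluorescent compounds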
rRNA inh HTS OD600 = further read-out of rRNA inh HTS, marked with its call; OD600 change, %; measured here: OD600 growth;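 optical density of the mix in the first replicate; 0 = DMSO median and -100 = no signal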
rRNA inh HTS RFP = further read-out of rRNA inh HTS, marked with its call; RFP signal change, %; measured here: RFP humanized mutant strains;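 first replicate; 0 = DMSO median and -100 = no signal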
* hit, by the source's call; ? = inconclusive; . = no result given. Only part of the results is shown; rates above refer to the full screens.

SMILES	T cruzi repl	Beta cell apopt	A1 inh	rRNA inh HTS	rRNA inh HTS OD600	rRNA inh HTS RFP	LANA-H2A inh	ALR inh	Calb FLC	B2AR ag
Cc1[nH]c(=O)[nH]c(=O)c1/C=N/NC(=O)CCCCCNC(=O)OC(C)(C)C	-1	0	0.4	8	6	3.8	0.5	-1	-5	-3
O=C(COC(=O)c1cc(=O)[nH]c2ccccc12)c1ccc(Br)cc1	5	-6	1.4	1	0	0.7	-5.6	.	0	-3
O=[N+]([O-])c1ncccc1OCc1ccccc1Br	3	-5	0.1	-12	-14	-1.8	2.2	-4	-4	4
Cc1ccc(C)c(C(=O)N(Cc2nc(-c3ccc(Cl)cc3)no2)C(C)C)c1	16	-6	-0.2	0	-14	6.7	-4.4	10	10	-4
COc1ccc(OC)c(S(=O)(=O)Nc2cccc(O)c2)c1	8	0	-0.1	8	-8	4.1	-3.9	18	30	7
O=C(c1c(O)cc(O)cc1O)C1c2c(cc(O)c3c2O[C@H](c2ccc(O)cc2)[C@@H](O)C3)OC1c1ccc(O)cc1 (stereo partly drawn)	.	-5	0.3	-4	-5	-8.7	-4.2	99*	.	-3
CCOC(=O)CCc1c(C)c2ccc(OCC(=O)N(CC)CC)c(C)c2oc1=O	12	2	0.4	.	.	.	-2.8	-10	-4	-8
COC(C(=O)Nc1cc([N+](=O)[O-])ccc1C)c1ccccc1 (stereo not drawn)	-8	-7	-0.4	3	5	-7.7	0.7	-15	-5	4
O=C1OC(Cc2ccncc2)C(O)=C1C1=NCCCN1 (stereo not drawn)	-16	-9	-0.3	.	.	.	-1.0	-3	-10	3
O=c1oc2ccc([N+](=O)[O-])cc2c(N2CCOCC2)c1[N+](=O)[O-]	-13	-5	-0.8	14	20	1.9	-0.5	.	10	.
CC(C)(C)NC(=O)C(c1ccccc1)N(C(=O)c1csnn1)C1CC1 (stereo not drawn)	-2	-1	-0.2	.	.	.	-0.7	2	-2	0
CCOC(=O)N/N=C/c1c[nH]c2ccccc12	-4	5	0.6	11	12	-0.6	-11	35	-8	0
O=C(N/N=C1\CC2CC=CC12)c1ccc(Br)cc1 (stereo not drawn)	-7	2	0.2	6	6	1.3	4.3	1	-10	-1
COc1cc(/C=N/O)cc(Br)c1OCc1cccc(Cl)c1	-8	0	0.2	.	.	.	6.6	-1	23	0
CN(C)Cc1c(O)ccc2[nH]cnc12	-15	-7	0.2	.	.	.	-0.4	-2	-8	5

Records listed above printed as active in ALR inh.
compound,A1 inh,rRNA inh HTS,rRNA inh HTS OD600,rRNA inh HTS RFP,LANA-H2A inh,ALR inh,B2AR ag
O=C(c1c(O)cc(O)cc1O)C1c2c(cc(O)c3c2O[C@H](c2ccc(O)cc2)[C@@H](O)C3)OC1c1ccc(O)cc1 (stereo partly drawn),0.3,-4,-5,-8.7,-4.2,99*,-3

Remaining list, next part.
SMILES	T cruzi repl	Beta cell apopt	A1 inh	rRNA inh HTS	rRNA inh HTS OD600	rRNA inh HTS RFP	LANA-H2A inh	ALR inh	Calb FLC	B2AR ag
CCN(CC)S(=O)(=O)c1ccc2c(c1)nc(CCC(=O)OCc1c(C)noc1C)n2C	-5	-9	0.5	.	.	.	4.2	.	-4	0
O=C(NCc1ccncc1)C(=O)NCC1OCCN1S(=O)(=O)c1cc(F)ccc1F (stereo not drawn)	6	-3	0.7	8	5	-0.7	2.6	.	-1	-4
Cc1c(C)c2ccc(OCC(=O)NCCN3CCOCC3)c(C)c2oc1=O	8	0	-0.3	5	5	-0.9	2.2	-2	6	-3
O=C(N/N=C/c1ccc(Br)o1)c1cncc(Br)c1	2	-17	0.8	8	14	2.0	3.4	-25	-7	3
O=C(COc1ccc2ccc(=O)oc2c1)c1ccccc1	8	2	-0.5	17	17	1.4	-4.9	-12	11	-11
Cc1ccc(NC(=O)Nc2ccc(S(N)(=O)=O)cc2)cc1	5	2	-0.6	4	12	-0.3	0.9	0	-5	6
COc1ccc(Br)cc1CNC(=O)Nc1cccs1	12	.	0.2	.	.	.	2.1	0	-35	-4
CCc1nc(NC(C)(C)C)c2cnn(-c3ccccc3)c2n1	21	-1	0.5	7	12	0.7	-4.2	-12	9	10
O=C(O)c1ccc(N=c2oc3cc(O)ccc3cc2C(=O)NCc2ccccc2)cc1	8	-4	0.1	-15	-13	-1.1	2.5	90*	-5	14
CC(C)(C)C(=O)Cn1c(=O)n(CC2CCCO2)c(=O)c2ccccc21 (stereo not drawn)	2	-8	0.5	.	.	.	3.2	-1	3	6
COc1ccc(NS(=O)(=O)NC(=O)c2c(C)n(C)c3ccccc23)cc1	-6	6	0.1	6	2	-2.3	-0.9	-8	5	6
N#CC1(c2c(O)nc3n(c2=O)CCCS3)CCCCC1	-11	-7	-0.1	.	.	.	0.2	-15	-4	25
Cc1ccc(N(C)C(=O)C2CCN(S(=O)(=O)c3ccc4c(c3)oc(=O)n4C)CC2)cc1	8	-3	-0.1	-4	0	0.4	0.2	-11	2	-15
CCc1[nH]nc2c1C1(CCN(C(=O)OCc3ccccc3)CC1)C(C#N)=C(N)O2	-6	-13	0.6	.	.	.	6.8	8	-11	5
O=C(O/N=C/c1ccc2c(c1)OCO2)c1ccc([N+](=O)[O-])cc1	-23	0	-0.2	10	8	0.2	1.8	.	3	0
COCc1[nH][nH]c(=O)c1C=Nc1ccc(Cl)cc1	-15	-9	1.0	.	.	.	2.1	2	-100	-1
O=c1c(-c2ccc(Oc3ccccc3)cc2)[n+]([O-])c2ccccc2n1OCc1ccccn1	17	-3	0.0	.	.	.	3.0	-3	22	-10
CN(CC(=O)NC1CCCCCC1)S(=O)(=O)c1ccc(F)cc1	2	-1	0.1	11	22	0.0	3.9	-2	-1	-3
Cc1ccc(C)c(NC(=O)c2ncn[nH]2)c1	1	-16	0.2	.	.	.	3.2	7	-14	6
O=C(NC(Cc1ccccc1)C(=O)O)C1CCN(S(=O)(=O)c2cccc(C(F)(F)F)c2)CC1 (stereo not drawn)	-7	3	-0.6	5	-6	-1.9	-1.1	.	0	-4
CCOc1ncccc1C(=O)OCC(=O)NC(=O)c1ccccc1	.	2	0.2	.	.	.	2.8	-5	.	4
COc1ccc(CN2CCSCC2)cc1O	-4	.	0.7	.	.	.	-2.8	-1	-13	3
CCOC(=O)c1c(C)[nH]c(C)c1C(=O)COC(=O)[C@@H](NC(=O)c1ccccc1OCC)C(C)C	43	2	0.1	.	.	.	-0.3	-3	-13	0
CC(C)(C)NC(=O)CSc1nnc(NC(=O)CCn2cnc3ccccc3c2=O)s1	1	.	0.9	.	.	.	2.2	0	0	-1
Cc1cc(C)n(-c2cc(C(C)(C)C)nc3c(-c4ccc(Cl)cc4)cnn23)n1	?	6	-1.1	.	.	.	-1.7	0	8	19
NC(=O)CC(NC(=O)Cc1ccc(Cl)cc1)c1ccc(N2CCC(Cc3ccccc3)CC2)c([N+](=O)[O-])c1 (stereo not drawn)	-30	15	-0.8	6	10	-1.8	0.6	3	-12	24
COc1ccccc1OCC(=O)NN=C(Cc1ccccc1)Cc1ccccc1	0	-2	1.5	.	.	.	-2.4	11	-9	2
Cc1cccc(/C=N/n2c(-c3ccccc3)n[nH]c2=S)c1O	-19	-3	-0.8	4	3	0.2	4.0	91*	7	7
CC(C)(C)c1cc(-n2ccnc2)n2ncc(-c3ccc(Cl)cc3)c2n1	-14	-7	-0.6	.	.	.	3.0	-2	-6	4
Cc1ccccc1NC1=C(Cl)C(=O)N(C2CCCCC2)C1=O	-23	8	1.2	.	.	.	6.9	10	6	6
COc1ccc(C(=O)Nc2ccc(C3(C#N)CCCC3)cc2)cc1OC	40	-6	-11	-17	-33	-6.0	6.3	.	6	4
Cc1ccc(S(=O)(=O)N(C)CC(=O)OCC(=O)Nc2ccccc2)cc1	-20	-7	-0.5	-6	-8	0.2	-0.7	0	2	1
CCOC(=O)c1[nH]c2ccc(F)cc2c1NC(=O)CCN1CCOCC1	-15	-6	0.1	-2	1	-0.9	1.2	-2	5	4
Cc1ccc(C)c(N(CC(=O)NC2CCCC2)C(=O)c2cc3cc4cccc(C)c4nc3s2)c1	-7	3	0.3	7	1	2.3	1.9	-11	-5	12
O=C(N/N=C\c1ccc(-c2ccc([N+](=O)[O-])cc2)o1)c1ccc2c(c1)OCO2	33	0	-0.7	.	.	.	0.9	6	31	0
CC[C@]1(c2ccccc2OC)ON(c2ccccc2C(F)(F)F)C1=O	.	87*	1.7	9	3	-4.8	-4.0	-5	.	.
CC[C@]12CCCN3CCc4c(n(c5ccccc45)C(=O)C1)[C@@H]32	.	6	0.5	.	.	.	-1.5	0	.	-12
O=C(O)CCC(=O)Nc1ccc(-n2ccc(C(F)(F)F)n2)cc1	-8	-3	-0.4	0	9	-2.7	-3.4	-10	-1	5
Cn1nc(-c2ccccc2)nc1-c1ccccc1	-9	-9	-0.5	10	3	0.2	-2.1	9	-7	-13
Oc1cccc(/C=C/c2ccc3cccc(O)c3n2)c1	-22	16	-6.7	-59	-80	-21	2.8	.	-1	24
O=C(NNS(=O)(=O)c1cc(Cl)c(Cl)cc1Cl)c1cccnc1	-8	0	0.2	-2	1	-3.5	-5.4	8	3	-5
Oc1cccc(N2Cc3ccccc3C2)c1	3	-13	-0.6	.	.	.	1.2	-26	7	8
CC(=O)/C(C#N)=C1\NC(=O)C(Cc2ccc(C)c(C)c2)S1 (stereo not drawn)	-3	7	-0.3	.	.	.	7.4	?	-4	15
CCOc1ccc(NC(=O)C[n+]2ccc(N(C)C)cc2)cc1	0	-2	0.4	5	12	-7.5	-4.1	.	-2	1

Reformatted: entries from further up
smiles | T cruzi repl | Beta cell apopt | A1 inh | rRNA inh HTS | rRNA inh HTS OD600 | rRNA inh HTS RFP | LANA-H2A inh | ALR inh | Calb FLC | B2AR ag
Cc1ccc(NC(=O)Nc2ccc(S(N)(=O)=O)cc2)cc1 | 5 | 2 | -0.6 | 4 | 12 | -0.3 | 0.9 | 0 | -5 | 6
O=C(O/N=C/c1ccc2c(c1)OCO2)c1ccc([N+](=O)[O-])cc1 | -23 | 0 | -0.2 | 10 | 8 | 0.2 | 1.8 | . | 3 | 0

As a working copy, 2 of the compounds above.
SMILES	T cruzi repl	Beta cell apopt	A1 inh	rRNA inh HTS	rRNA inh HTS OD600	rRNA inh HTS RFP	LANA-H2A inh	ALR inh	Calb FLC	B2AR ag
COc1ccc(C(=O)Nc2ccc(C3(C#N)CCCC3)cc2)cc1OC	40	-6	-11	-17	-33	-6.0	6.3	.	6	4
Cc1ccc(S(=O)(=O)N(C)CC(=O)OCC(=O)Nc2ccccc2)cc1	-20	-7	-0.5	-6	-8	0.2	-0.7	0	2	1

Bioassay records: PubChem, several laboratories
